NPYLR7 ag: agonists of mosquito NPYLR7 receptor, primary screen, cell-based, Aedes aegypti, calcium fluorescence, mosquito biting behavior. Aedes aegypti neuropeptide Y-like receptor 7 (NPYLR7). HEK293T NPYLR7/Galpha15, GCaMP6s calcium fluorescence. activation, % at 10 µM. hit rate 0.15% among 270,000. AID 1259423, 2018; in the data active = activation above about 40%;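 also: 0% = vehicle and 100% = reference agonist at the receptor; some compounds past the cut are filed as inactive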
NPYLR7 ag max-min: recorded beside NPYLR7 ag, whose call it bears; activation, %; measured here: Max-Min RFU normalised activation; some inactives read as strong as hits;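 span of the calcium signal over five minutes; 0% = vehicle and 100% = native peptide agonist; compound fluorescence can raise it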
An asterisk follows results filed as active; & = joins results of further samples. This is a subset, so the mix of outcomes need not match the whole.

Under each structure – NPYLR7 ag	NPYLR7 ag max-min
(1) CCCCCCCC(=O)N(CCCOC)CC(=O)N(CCc1c[nH]c2ccccc12)Cc1ccc(F)cc1
  13	8
(2) Clc1ccc2oc(-c3ccccn3)nc2c1
  -1	6
(3) O=C(c1cnc2sccn2c1=O)N(Cc1ccccc1)Cc1ccccc1
  5	3
(4) O=C(CC1(N2CCOCC2)CCCC1)NC1CCC(O)CC1 (stereo not given)
  2	-1
(5) Cc1cccc(COC(CN2CCN(C(=O)c3cccc4ccccc34)CC2)c2ccc(Cl)cc2)c1 (stereo not given)
  -4	5
(6) CCOC(=O)c1nn(-c2ccccc2)c(=O)cc1NCCC(c1ccccc1)c1ccccc1
  7	1
(7) CCN1C(=O)N(C)C(=O)C12CCN(Cc1cc3oc(C)c(-c4ccccc4)c3cc1OC)CC2
  11	-2
(8) Cc1ccc(C)c(-n2cc(CNC(C)Cn3cncn3)c(-c3ccccc3)n2)c1 (stereo not given)
  8&-1	4&-5
(9) Cc1cc(NC(=O)c2cccc(CN3[C@@H]4CC[C@H]3CC(O)C4)c2)n(C)n1 (stereo not given in full)
  -6	-8
(10) Cc1c(C(=O)N2CCCc3ccccc32)sc2nc(-c3cccc([N+](=O)[O-])c3)cn12
  4	-1
(11) Cn1nc2c(c1C(=O)N1CCc3ccc(NC(=O)c4ccccc4Cl)cc3C1)CCCC2
  7&14	0&2
(12) COC(=O)c1ccc(CN2C(=O)C(CCc3ccccc3)ON=C2c2cnccn2)o1 (stereo not given)
  9	1
(13) Cc1ccc(NC(=O)CSc2ncnc3c2oc2ccccc23)c(C)c1
  6	3
(14) CCN(CC)S(=O)(=O)c1ccc(C(=O)OCn2c(SC)nnc(C)c2=O)cc1
  1	-1
(15) CCN(Cc1csc(COc2cccc(C)c2C)n1)C(=O)c1cccc(Br)c1
  -6	-4
(16) CC1(C(=O)NCCCN2CCCC2=O)CCN1Cc1cc2ccccc2o1 (stereo not given)
  8	0
(17) COc1ccc(-c2cnc3ncnn3c2N2CCN(S(=O)(=O)c3ccc(F)cc3Cl)CC2)cc1OC
  17	11
(18) O=C(NCc1ccncc1)c1coc(COc2cccc(C(F)(F)F)c2)n1
  8	2
(19) Cc1ccccc1OC1CCN(Cc2nc(-c3sccc3C)oc2C)CC1
  24	14
(20) COc1ccccc1OCCN1C(=O)C2(SC(NC(C)=O)=NN2C(C)=O)c2ccccc21 (stereo not given)
  -2	-1
(21) CCOC(=O)C1CCN(C(=O)c2cc(-c3ccccc3OC)nc3cc(C(C)(C)C)nn23)CC1
  9	7
(22) COc1ccc(NC(=O)C2(C)CCN2CCCc2ccccc2)cc1OC (stereo not given)
  3	-2
(23) O=c1ccc(-c2ccc(F)cc2)nn1CCCNS(=O)(=O)/C=C/c1ccccc1
  -1	-2
(24) Cc1cc(NCCc2ccc(Cl)cc2Cl)n2ncnc2c1
  -1	12
(25) CC1CC(C(F)(F)F)=NN1CC(=O)Nc1ccc(Oc2ccccc2)cc1 (stereo not given)
  -5	-6
(26) CCOC(=O)N1CCC(NC2CCN(c3ccc(NC(=O)c4ccccc4F)cc3)CC2)CC1
  14	4
(27) Cc1cccnc1C(c1ccc(F)cc1)N(C)C(=O)C1CCN(CCc2ccc(Br)cc2)CC1 (stereo not given)
  5	-2
(28) COc1ccc(NC(=O)Nc2ccc(Nc3cc(-n4cccn4)ncn3)cc2)cc1Cl
  -7	-7
(29) Cn1nc(CC2CCN(C(=O)c3cccnn3)CC2)n(-c2ccccc2)c1=O
  10	4
(30) Cc1nnc(NC(=O)CSc2nnc(NC(=O)COc3ccccc3)s2)s1
  -5	-12
(31) Cc1cc2c(cc1CN1CCC(CNC(=O)NC(C)C)C1)OCO2 (stereo not given)
  -1	-2
(32) CCCc1cc(=O)[nH]c(-n2nc(C)cc2NC(=O)c2ccc(OCC)cc2)n1
  13	7
(33) COc1ccc(C(=O)N2CCN(C(=O)CCCSc3nnc(-c4ccco4)n3-c3ccccc3C)CC2C)cc1 (stereo not given)
  3	11
(34) Cc1cccc(Cn2c(=O)c(C(=O)NCc3ccncc3)nn(-c3ccc(F)cc3)c2=O)c1
  -9	-2
(35) Cc1noc(C)c1C(=O)N1CCN2C[C@@H](C(N)=O)[C@H](c3ccccc3)[C@H]2C1
  6	13
(36) CCCCS(=O)(=O)NCc1nnc(SCc2ccc(F)cc2)n1-c1cc(Cl)ccc1Cl
  -3	1
(37) COc1ccc(S(=O)(=O)Nc2cc(Cl)ccc2-n2cncn2)cc1
  1	0
(38) CCOC(=O)c1nn(-c2ccccc2)c(=O)cc1OS(=O)(=O)c1ccc(C)cc1
  -2	3
(39) Cc1cccc(-n2nnc3c(=O)n(CC(=O)NCc4ccc5c(c4)OCO5)cnc32)c1
  -5	-10
(40) CCOC(=O)c1cnc2nc(COc3ccccc3)[nH]n2c1=O
  -14	-19
(41) O=C(NC1CCCCC1)c1cccnc1SC1CCCC1
  5	4
(42) Cc1csc(C(C#N)C(=O)c2cnn(C)c2-n2c(C)ccc2C)n1 (stereo not given)
  8	2
(43) CC(C)C(=O)N1CCN(C(=O)C(C)SCC(=O)Nc2ccc(F)cc2)CC1 (stereo not given)
  -4	-1
(44) COCCN(CC(=O)N(CCc1c[nH]c2ccccc12)Cc1ccccc1)C(=O)c1cc(C(F)(F)F)cc(C(F)(F)F)c1
  3	18
(45) COc1ccc(-c2c[n+]3c(n2-c2ccccc2)SCC3)cc1OC
  7	5
(46) O=C(O)C1C2CCC(O2)C1C(=O)N1CCN(c2ccccc2F)CC1 (stereo not given)
  -5	-6
(47) COC(=O)c1ccc(Cn2nc(-c3ccco3)c3sc(N4CCOCC4)nc3c2=O)cc1
  0	-3
(48) c1coc(Cn2ccnc2-c2ccc(-c3ccn[nH]3)o2)c1
  2	1
(49) CN(C)c1cccc(-c2ccc3c(c2)C(C)(Cc2cc(Cl)ccc2C(F)(F)F)C(=O)N3)c1 (stereo not given)
  2	3
(50) COc1ccc(-n2cc(CNCCN3CCC(O)CC3)c(-c3cccc(F)c3)n2)cc1
  0	-3

(further entries)
Under each structure – NPYLR7 ag	NPYLR7 ag max-min
(51) O=C(CCSc1ccc2c(c1)OCCO2)NCCN1CCOCC1
  -3	-4
(52) CN1CCN(c2nc3c(c(=O)[nH]c(=O)n3C)n2Cc2ccc(Cl)cc2Cl)CC1
  5	3
(53) Cc1nnc(NC2CCCCCCC2)c(C#N)c1C
  6	4
(54) COc1ccc2nc(-c3cccc(NS(=O)(=O)c4cc(C)c(C)cc4OC)c3)cn2n1
  -9	-13
(55) COc1cccc(CN2CCC2(C)C(=O)Nc2cccc3cccnc23)c1F (stereo not given)
  3	-5
(56) COc1cc(OC)c(OC)cc1CN1CCOc2ccc(C(O)CCc3ccccc3)cc2C1 (stereo not given)
  30	18
(57) O=C(Nc1cc(-c2ccco2)nn1-c1ccc(C(F)(F)F)cc1)c1cc(F)cc(C(F)(F)F)c1
  26	14
(58) Cc1cccc(Oc2cnn(C)c(=O)c2Nc2ccc(C(=O)N3CCOCC3)cc2)c1C
  -1	3
(59) COc1ccc(-n2ncc(Oc3cccc(C(C)C)c3)c(Nc3ccc(C(=O)NCc4ccco4)cc3)c2=O)cc1
  14	13
(60) CCC1CC2(O)CC(C#N)(C(=O)N2)C1(C#N)C#N (stereo not given)
  2	-1
(61) CCCCc1ccc(C(=O)N(CC(=O)N(Cc2ccccc2)Cc2ccc(C)s2)CC(C)CC)cc1 (stereo not given)
  8	14
(62) O=c1cc(CN2CCN(S(=O)(=O)c3c(Cl)cccc3Cl)CC2)occ1OCc1ccc(C(F)(F)F)cc1
  21	9
(63) Cc1nc(SCc2nc3ccccc3[nH]2)c2ccccc2n1
  5	1
(64) CNC(=O)Cn1c(CO)c[nH]c1=S
  -4	-7
(65) COc1cccc([C@@H]2CCN(C(=O)c3nc4ccccc4[nH]3)C[C@H]2O)c1
  2	1
(66) O=C(CSc1nc2ncc(Cl)cc2[nH]1)N1CCN(CC(=O)N2CCCC2)CC1
  9	12
(67) CCOC(=O)N1CCN(C(=O)CSc2nc(Cl)cc(N3CCN(C(=O)c4ccc(OC)cc4)C(C)C3)n2)CC1 (stereo not given)
  -2	5
(68) CCc1cccc2c(C(CC(=O)NCCc3ccc(OC)c(OC)c3)c3cccc(C(F)(F)F)c3)c[nH]c12 (stereo not given)
  16	16
(69) O=C(NCC1CCCO1)c1coc(CN(Cc2ccccc2)Cc2ccco2)n1 (stereo not given)
  20	13
(70) Cc1nn(-c2ccc(F)cc2F)c(C)c1CCC(=O)N1CCSC1
  -10	-16
(71) Cc1cc(=O)[nH]c(-n2nc(-c3cccs3)cc2NC(=O)c2ccccc2Cl)n1
  4	3
(72) CN(C)CC(=O)N1CCCCC1CCc1ccccn1 (stereo not given)
  8	5
(73) O=C(Nc1nccs1)c1ccccc1C(=O)c1ccc2c(c1)OCCO2
  4	10
(74) Cc1ccc2occ(C3Nc4ccccc4N=C4CC(c5ccccc5)CC(=O)C43)c(=O)c2c1 (stereo not given)
  1	-4
(75) O=C(C1CCC1)N1CCCC(OCc2cc(F)ccc2F)C1 (stereo not given)
  -5	-3
(76) CC(C)(C)CC(C)(C)Nc1c(-c2ccc(OC(=O)c3ccc(Cl)c(Cl)c3)cc2)nc2ccccn12
  1	7
(77) Cc1cc(C2=[N+]([O-])C(C)(C)C(c3ccc(F)c(C)c3)=[N+]([O-])C2(C)C)ccc1F
  9	14
(78) COc1cc(=O)n(-c2ccc(F)cc2)nc1C(=O)Nc1nc2ccccc2s1
  10	4
(79) CN(CCC(O)c1ccccc1)C(=O)c1cccc(F)c1 (stereo not given)
  2	1
(80) Cc1ccc(S(=O)(=O)NCCC(=O)NC(C)(C)C)c(C)c1N(C)S(C)(=O)=O
  -12	-13

Gathered by group: the entries above with two or more sulfur atoms.
Under each structure – NPYLR7 ag	NPYLR7 ag max-min
(14) CCN(CC)S(=O)(=O)c1ccc(C(=O)OCn2c(SC)nnc(C)c2=O)cc1
  1	-1
(30) Cc1nnc(NC(=O)CSc2nnc(NC(=O)COc3ccccc3)s2)s1
  -5	-12
(36) CCCCS(=O)(=O)NCc1nnc(SCc2ccc(F)cc2)n1-c1cc(Cl)ccc1Cl
  -3	1
(80) Cc1ccc(S(=O)(=O)NCCC(=O)NC(C)(C)C)c(C)c1N(C)S(C)(=O)=O
  -12	-13

(cont.)
Under each structure – NPYLR7 ag	NPYLR7 ag max-min
(81) Cn1c(=O)c2c(nc(NCCO)n2Cc2ccccc2)n(C)c1=O
  3	-3
(82) O=C(c1cc2nc3c(c(C(F)(F)F)n2n1)CCc1ccccc1-3)N1CCN(c2ccccc2)CC1
  7	6
(83) O=C1OC(c2ccccc2F)C(=C(O)c2ccccc2)C1=O (stereo not given)
  20	9
(84) COc1ccccc1NC(=O)NCCNc1ccc(Nc2cc(C)ccn2)nn1
  9	-1
(85) CCOC(=O)CCC(=O)N1CCCN(c2nc(Cc3ccc(C)cc3)nc3onc(-c4cccnc4)c23)CC1
  23	7
(86) CCOC(=O)c1cc(-c2ccc(N3CCN(C(=O)C(OC(C)=O)c4ccccc4)CC3)cc2)n(-c2ccc(OC)cc2)n1 (stereo not given)
  17	6
(87) Fc1ccccc1Cc1noc(CNCc2cn3cccnc3n2)n1
  6	1
(88) CCOc1ccc(C(=O)Nc2c(N)nc(SCC(=O)O)[nH]c2=O)cc1
  0	0
(89) COc1cc(CNC(=O)Nc2ccc(C)c(F)c2)ccn1
  1	0
(90) O=C(CCS(=O)(=O)c1ccccc1)Nc1nnc(-c2ccco2)o1
  1	0
(91) Cc1c(NC(=O)COC(=O)C(C#N)=Cc2ccc(N(C)C)cc2)c(=O)n(-c2ccccc2)n1C
  50*	42*
(92) CN1CCN(C(=O)C2CC(=O)N(C3CCCCC3)C2)CC1 (stereo not given)
  7	3
(93) COCCCN(CC(=O)Nc1cc(C(C)(C)C)nn1-c1ccccc1Cl)C(=O)Nc1cccc(C(F)(F)F)c1
  28	22
(94) CCCc1c(C(=O)N2CCNC(=O)C2CC(=O)OCC)cnn1-c1ccccc1 (stereo not given)
  4	5
(95) CN(C)/C=C/c1c(C#N)c(=O)ncn1Cc1ccccc1
  0	-4
(96) CCOC(=O)c1ccc2c(c1)nc(SCc1c(F)c(F)c(OC)c(F)c1F)n2CCc1ccc(OC)cc1
  3	-3
(97) O=C1CCCc2c1nn(-c1ccccc1)[n+]2[O-]
  -12	-18
(98) Cc1ccc(S(=O)(=O)N2CCOC2CNC(=O)C(=O)NCCCN(C)C)cc1 (stereo not given)
  -3	2

Shown as labelled records: 4 of the compounds above.
#93 COCCCN(CC(=O)Nc1cc(C(C)(C)C)nn1-c1ccccc1Cl)C(=O)Nc1cccc(C(F)(F)F)c1
- NPYLR7 ag = 28
- NPYLR7 ag max-min = 22
#94 CCCc1c(C(=O)N2CCNC(=O)C2CC(=O)OCC)cnn1-c1ccccc1 (stereo not given)
- NPYLR7 ag = 4
- NPYLR7 ag max-min = 5
#95 CN(C)/C=C/c1c(C#N)c(=O)ncn1Cc1ccccc1
- NPYLR7 ag = 0
- NPYLR7 ag max-min = -4
#96 CCOC(=O)c1ccc2c(c1)nc(SCc1c(F)c(F)c(OC)c(F)c1F)n2CCc1ccc(OC)cc1
- NPYLR7 ag = 3
- NPYLR7 ag max-min = -3

Source: PubChem BioAssay
